# Assay outcomes deposited in PubChem by National Center for Advancing Translational Sciences (NCATS).
# NS1 inh = influenza NS1 inhibition; S. cerevisiae slowed by influenza A NS1, growth recovery by OD600; Potency, µM (top dose mostly 46.1 µM), inactives show at the highest dose activity, positive = more growth; hit rate 0.4% among 270,000; AID 2326; further: actives are rising curves; nearly all actives have a fitted effect of over 50% in size
#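 Recovery from NS1-induced slow growth read by OD600 in budding yeast switched to galactose assay medium (pH 6.0, -URA) at 1:100 dilution. Compound 23 nl per well; the matching strain lacking NS1 serves as control.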
# Cruzain inh Det = cruzain (T. cruzi) inhibition with detergent; P25779; purified cruzain, Z-FR-AMC fluorescence, 0.01% Triton; Potency, µM, without a hit: max response, negative = inhibition, hits mostly inhibitors; hit rate 0.43% among 200,000; AID 1478; active means well fitted curve in the direction sought with a large enough effect; inconclusive means small, poorly fitted or top-dose-only effect, or another doubt; inactive means no such curve, though single readings can be large; an effect the other way counts as inactive or inconclusive;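 further: plate controls were neutral wells for no effect and buffer without enzyme for full effect; nearly all actives have a fitted effect of over 40% in size; top concentration of the series not given in the record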
# Target sequence (P25779 123-467 limits assumed): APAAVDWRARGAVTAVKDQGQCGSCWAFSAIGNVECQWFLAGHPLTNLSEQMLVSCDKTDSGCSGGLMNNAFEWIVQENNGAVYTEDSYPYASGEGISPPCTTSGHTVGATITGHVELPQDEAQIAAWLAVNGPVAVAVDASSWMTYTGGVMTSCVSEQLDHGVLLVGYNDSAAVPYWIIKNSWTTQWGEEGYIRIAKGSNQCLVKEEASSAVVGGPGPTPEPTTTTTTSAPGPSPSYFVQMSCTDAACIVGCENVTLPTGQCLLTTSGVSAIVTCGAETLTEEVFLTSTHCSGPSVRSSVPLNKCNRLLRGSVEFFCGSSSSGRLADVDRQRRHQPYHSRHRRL
#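 Cysteine protease activity tested under reducing, mildly acidic conditions (100 mM sodium acetate pH 5.5, 5 mM DTT) plus 0.01% Triton X-100. Cruzain 1.5 nM; substrate Z-FR-AMC 2 uM; 15 min compound preincubation at room temperature.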
# 2A StopGo = FMDV 2A StopGo reporter, luciferase signal | Potency, µM (doses to about 57.9 µM), for the others: at the top dose signal change, negative = less light | hit rate 1.2% among 410,000 | human cells with a luciferase reporter of 2A StopGo recoding; control for the full effect not named in the record | AID 1159524; active = well fitted falling curve with a large enough effect; inconclusive = small, poorly fitted or top-dose-only effect; inactive = no such curve, though single readings can be large or run the other way; tested in HEK293T cells; further: on the % scale 0 is the no-effect control and ±100 the full control effect; nearly all actives have a fitted effect of over 45% in size; luciferase light after 4 h
# RE007 growth inh = less growth of the S. pombe RE007 Vpr strain; Potency, µM (series often up to 92.2 µM), without a hit: at the highest dose activity change, negative = less growth; S. pombe RE007 Vpr strain, BacTiter-Glo ATP luminescence, 24 h; control for the full effect not named in the record; hit rate 0.21% among 360,000; AID 651644; active = well fitted falling curve with a large enough effect; inconclusive = small, poorly fitted or top-dose-only effect; inactive = no such curve, though single readings can be large or run the other way;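 further: on the % scale 0 is the no-effect control and ±100 the full control effect; nearly all actives have a fitted effect of over 50% in size; the assay follows cell death caused by Vpr and the record does not say whether a fall means rescue or toxicity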
#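 Fission yeast strain RE007, carrying one chromosomally integrated HIV-1 vpr copy, was seeded at OD 0.01 in PMG+AL medium with 23 nL pinned compound. After 24 h at 30 °C and 99% humidity, viability was read by BacTiter-Glo luminescence.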
# SARS PLP yeast = SARS-CoV PLP inhibition in yeast | S. cerevisiae expressing SARS-CoV PLpro, growth rescue; control for the full effect not named in the record | Potency, µM (doses to about 32.9 µM), for the others: top-dose activity, positive = growth rescue | hit rate 0.19% among 330,000; further: 0% is about no effect; nearly all actives have a fitted effect of over 55% in size; growth read by luminescence after 48 h
# Lassa entry inh = blocks Lassa virus binding to or entry into cells; Lassa virus pseudotype entry inhibition, cell reporter; control for the full effect not named in the record; Potency, µM (highest dose often 37.9 µM), without a hit: top-dose activity change, negative = inhibition, usual class: inhibitors; hit rate 1.2% among 300,000; AID 540256; active means well fitted inhibition curve with a large enough effect; inconclusive means small, poorly fitted or top-dose-only effect, or effect the other way; inactive means flat fitted curve, though single readings scatter; tested in HEK293 cells; further: on the % scale 0 is the no-effect control and ±100 the full control effect; nearly all actives have a fitted effect of over 50% in size; luciferase read-out
# Marburg entry inh = inhibitors of Marburg virus binding or cell entry. Potency, µM (titrated, usually from 37.8 µM), for the others: top-dose activity change, negative = inhibition, hits mostly inhibitors. hit rate 1.8% among 300,000. Marburg virus pseudotyped entry inhibition, cell reporter; control for the full effect not named in the record; about a third of the inactives were read at about 46 µM; active = well fitted inhibition curve with a large enough effect; inconclusive = small, poorly fitted or top-dose-only effect, or effect the other way; inactive = flat fitted curve, though single readings scatter; tested in HEK293 cells; about a fifth of its hits are not listed in these tables; further: on the % scale 0 is the no-effect control and ±100 the full control effect; luciferase read-out
# Cruzain noTriton = inhibitors of Trypanosoma cruzi cruzain without detergent. purified cruzain, Z-FR-AMC fluorescence, no detergent. Potency, µM, without a hit: max response, negative = inhibition, usual class: inhibitors. hit rate 2.3% among 200,000. AID 1476; active means well fitted curve in the direction sought with a large enough effect; inconclusive means small, poorly fitted or top-dose-only effect, or another doubt; inactive means no such curve, though single readings can be large; an effect the other way counts as inactive or inconclusive;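 further: plate controls were enzyme without inhibitor for no effect and buffer without enzyme for full effect; nearly all actives have a fitted effect of over 40% in size; top concentration of the series not given in the record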
#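 Purified cruzain at 1.5 nM, pre-incubated 15 min with compound at room temperature in 100 mM sodium acetate pH 5.5, 5 mM DTT, 0.00005% Triton X-100. Reaction started with 2 uM Z-FR-AMC; AMC fluorescence increase over 60 s gives rate.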
# An asterisk follows results filed as active; ? = inconclusive; . = not tested or not shown; & = joins results of further samples; [ ] = remark or other dose. Unless noted, the call rests on the fitted dose curve; in most records, active means well fitted rising curve with a large enough effect; inconclusive means small, poorly fitted or top-dose-only effect; inactive means no such curve, though single readings can be large or run the other way. Potency means the concentration at half of the fitted maximal effect.
SMILES,NS1 inh,Cruzain inh Det,2A StopGo,RE007 growth inh,SARS PLP yeast,Lassa entry inh,Marburg entry inh,Cruzain noTriton
CC(C)c1ccc(C(=O)Nc2nnc(S(=O)(=O)N3CCCCC3)s2)cc1,18%,.,-10%,-4%,-5%,.,.,.
Cc1nn(C)c(C)c1CN(C)C(=O)CCCC(=O)O,5%,1.6%,4%,14%,-7%,-1%,?,-1%
O=C1NC(=S)S/C1=C/c1ccc(N2CCOCC2)o1,7.9µM*,-13%,?,?,-8%,-10%,?,?
Cc1ccc(Cn2cc(-c3ccccc3)nn2)cc1,-40%,.,27%,0%,-7%,.,.,.
CCOc1ccc(-c2noc(-c3cccnc3)n2)cc1OCC,-1%,.,5%,3%,0%,6%,10%[46.1 µM],.
CCCN1CCN(CCCNC(=O)CCn2nc(-c3ccccc3)ccc2=O)CC1,.,.,-15%,-24%,-3%,7%[46.1 µM],?,.
CCN(CC)S(=O)(=O)c1nnc(NC(=O)COc2ccc(C)cc2)s1,.,-2.7%,5%,.,.,0%[46.1 µM],.,5%
CCOc1ccc(C(=O)NCC(=O)Nc2ccc3c(c2)OCO3)cc1OCC,.,.,18%,4%,1%,?,?,.
CSc1cc(C)nc(NC(C)=O)n1,-3%,0.3%,.,10%,7%,16%,13%,-1%
O=C(CCCOc1ccc(Cl)cc1)Nc1nncs1,-7%,-0.6%,-15%,-3%,-14%,-12%,17%,?
COC(=O)C1=C(C)N(C2CCCCC2)C(=O)C1,1%,5.1%,-6%,12%,1%,-3%,8%,-3%
CCOc1ccc2nc(-c3cc(NC(C)=O)ccc3O)sc2c1,3%,.,9%,-5%,0%,.,.,.
Cc1ccc(-c2nc3cccnc3o2)cc1NC(=O)COc1ccc(C(C)(C)C)cc1,-71%,-8.9%,?,30%,-24%,10µM*,?,11%
CCOC(=O)C1=C(C)N=c2s/c(=C3\C(=O)Nc4ccccc43)c(=O)n2C1c1ccc2c(c1)OCO2 (configuration not stated),?,-2.5%,19%,13%,7%,0%,20%&20%,-63%
Cc1ccnc2nc(C(=O)OCC(=O)Nc3ccc4c(c3)OC(F)(F)O4)nn12,-9%,-0.8%,.,-8%,-6%,12%,-10%,3%
CS(=O)(=O)N1CCC(C(=O)Nc2ccc(Oc3ccccc3)cc2)CC1,4%,-1.9%,.,13%,4%,-34%,-16%,1%
CCOC(=O)Cc1c(C)[nH]c(=S)[nH]c1=O,0%,0.2%,6%,27%,3%,-2%,0%,2%
CCNC(=S)N1CCN(Cc2ccccc2)CC1,2%,.,-13%,-11%,0%,.,.,.
CCC1=C(OC(=O)N(CC)CC)N2C(=O)OC(=NCC3CC3)[C@]2(Cc2ccccc2)[C@H]2C1=CC[C@H]1C(=O)NC(=O)[C@H]12,-4%,0.6%,-12%,-12%,3%,.,.,?
CN1C2CCC1/C(=C\c1ccccc1F)C(=O)/C2=C/c1ccccc1F,6%,-6.9%,-16%,3%,0%,-26%,2%,-3%
COc1ccc(OCC(=O)N2CCN(Cc3cccc(OC)c3OC)CC2)cc1,.,1.6%,-14%,.,.,-12%[46.1 µM],-7%[46.1 µM],8%
CCCCn1cnc2c(c1=O)c1nc3ccccc3nc1n2Cc1ccc2c(c1)OCO2,-2%,.,-11%,4%,0%,.,3%,.
COc1ccc(C(=O)NCS(=O)(=O)c2ccc(C)cc2)cc1,-6%,3.5%,0%,10%,-8%,-1%,19%,-1%
CCCOc1ccc(N2C(=O)CC(NCCc3ccc(S(N)(=O)=O)cc3)C2=O)cc1 (configuration not stated),7%,1.4%,1%,?,-28%,5%,-6%,9%
O=C(COc1ccccc1Cl)Nc1ccc(S(=O)(=O)Nc2ccccn2)cc1,11%,.,48%[activator],12%,-3%,-7%,4%[46.1 µM],.
SMILES,NS1 inh,Cruzain inh Det,2A StopGo,RE007 growth inh,SARS PLP yeast,Lassa entry inh,Marburg entry inh,Cruzain noTriton
Nc1nc(CN2CCN(c3ccccc3F)CC2)nc(Nc2ccc3c(c2)OCCO3)n1,1%,0.2%,22µM*,8%,0%,-7%,7%,-2%
COc1ccc(NC(=O)CN2CCCN(S(=O)(=O)c3ccc(F)cc3)CC2)cc1,-5%,-1.5%,-13%,0%,-8%,-2%,8%,-1%
Cc1nnc(SCC(=O)NCc2ccccc2Cl)n(N)c1=O,10%,-1.6%,-8%,12%,-26%,-1%,-17%,11%
CC1CCN(S(=O)(=O)N2CCC(C(=O)NCc3cccnc3)CC2)CC1,-5%,.,-23%,3%,1%,.,.,.
COc1cc2c(cc1OC)C1=C(C#N)CN(C3CCCCC3)CN1CC2,?,-2.0%,?,-1%,0%,.,.,-6%
Cc1cccc(NC(=O)CSc2cccc3cccnc23)c1,-44%,.,13%,-12%,-4%,.,.,.
COc1ccc(S(=O)(=O)Nc2nc3ccccc3s2)cc1,4%,2.6%,118%[activator],-15%,-8%,-1%,-4%[46.1 µM],3%
C=CCNCCOCCOc1ccc(C)cc1[N+](=O)[O-],3%,7.5%,-15%,18%,-2%,?,29%,6%
CCC(=O)N1CCc2cc(CNC(=O)c3cccc(N(C)C)c3)ccc21,.,0.4%,3%,.,.,-2%[46.1 µM],.,4%
CNC(=O)NC(=O)COC(=O)c1ccc(-n2c(C)ccc2C)cc1,15%,-2.3%,-17%,25%,11%,1%,4%,1%
COc1ccc(Cl)cc1NC(=O)C1CCCN(S(C)(=O)=O)C1 (configuration not stated),11%,.,-8%,1%,-3%,.,.,.
CCN(CC)C(=O)c1ccc(CS(=O)(=O)Cc2ccccc2)cc1,28%,.,-20%,10%,-5%,.,.,.
CCOc1ccc(C(=O)COC(=O)c2nc3nccc(C)n3n2)cc1,.,.,2%,-19%,-2%,-3%,12%,.
O=C(COC(=O)c1ccc2c(c1)C(=O)N(CCc1ccccc1)C2=O)Nc1ccc(OC(F)F)cc1,7%,0.9%,18%,-10%,-8%,2%,-2%,?
CCOC(=O)CN(C(=O)CSc1nnc(CNc2ccc(F)cc2)n1C)c1ccccc1,-3%,4.3%,31%[activator],-10%,0%,-10%,-21%[46.1 µM],1%
Cc1nn(C(C)C(=O)Nc2ccc(Cl)cn2)c(C)c1[N+](=O)[O-] (configuration not stated),-1%,4.7%,11%,-1%,-7%,-2%,0%,3%
COc1ccc(CNC(=O)c2cnc3sc(N4CCCC4)nn3c2=O)cc1OC,.,-3.6%,-29%,.,.,-8%[46.1 µM],.,-7%
C/C(=N\NC(=O)c1ccc(Cl)cc1)c1cccc(NC(=O)c2cccnc2)c1,0%,-2.1%,-4%,4%,-9%,23%,-9%,17%
COc1ccc(C)cc1S(=O)(=O)Nc1ccccc1C,3%,1.2%,27%,-2%,4%,15%,-2%,-5%
Cc1ccc(C)c(CN2CCCN(Cc3ccc(F)cc3)S2(=O)=O)c1,.,-8.1%,-1%,.,.,-29%[46.1 µM],.,-5%
O=[N+]([O-])c1cc(S(=O)(=O)Nc2ccccc2)ccc1N1CCN(c2ccc(O)cc2)CC1,14µM*,-7.0%,5%,5%,8%,-5%,1%,-30%
Cc1cc(OC(=O)c2ccccc2Br)c([N+](=O)[O-])c(=O)[nH]1,-1%,.,-14%,0%,7%,.,.,.
Cc1cccc(OCCn2cc(/C=N/NC(=O)c3ccncc3)c3ccccc32)c1,31%,-7.5%,?,112%,?,?,?,?
CCOC(=O)C1CCCN(C(=O)c2ccc3c(c2)N(Cc2cccc(Cl)c2)C(=O)c2ccccc2S3(=O)=O)C1 (configuration not stated),.,-2.8%,-3%,.,.,?,.,?
O=C(NCCc1nc2ccccc2[nH]1)/C(=C/c1ccco1)NC(=O)c1ccc(Br)cc1,-4%,-3.2%,-4%,6%,-20%,10%,-8%,-2%
SMILES,NS1 inh,Cruzain inh Det,2A StopGo,RE007 growth inh,SARS PLP yeast,Lassa entry inh,Marburg entry inh,Cruzain noTriton
CCOc1cccc(CNCCNC(=O)c2nonc2N)c1,2%,-0.7%&3.2%,7%&2%,1%,-6%,-6%[46.1 µM],?,5%&0%
Cc1cc(C)cc(N2C(=O)CC(c3ccc(C(F)(F)F)cc3)C3=C2COC3=O)c1 (configuration not stated),.,-2.2%,-10%,.,.,9%[46.1 µM],2%[46.1 µM],0%
CC(=O)c1ccc(NC(=O)C(C)Sc2nnc(C3CC3)n2C2CC2)cc1 (configuration not stated),.,.,2%,-4%,3%,21%,?,.
S=C(NCCc1ccccc1)N1CCCC1,.,.,50%[activator],0%,.,?,6%,.
COc1ccc(OCC(=O)Nc2cccc(C(=O)OCc3cc(=O)n4nc(C)sc4n3)c2)cc1,.,4.5%,15%,.,.,?,.,-4%
COC(=O)c1ccc(COC(=O)c2ccc(C)c(S(=O)(=O)N3CCCCC3)c2)cc1,.,.,-14%,8%,6%,-20%,12%[46.1 µM],.
Nc1ccccc1SCc1ccccc1,.,.,36%[activator],-22%,1%,14%,-5%,.
CCOc1ccc(-n2cnnn2)cc1S(=O)(=O)N1CCCCC1,-4%,5.0%,.,-9%,1%,0%,2%,-14%
O=C(O)CSCC(=O)NCc1ccccc1,7%,0.8%,15%,15%,-3%,-24%,-1%,15%
CSc1ccccc1C(=O)N1CCC(CCC(=O)NCc2ccc(F)cc2)CC1,-15%,.,-29%,-17%,5%,-16%,-16%,.
COc1ccc(C2(c3ccc(OC)cc3)NC(=O)N(CC(=O)NC(C)C)C2=O)cc1,4%,.,-8%,8%,1%,-23%,-6%[46.1 µM],.
O=C1c2ccc(Oc3ccc4c(c3)C(=O)N(CCCCO)C4=O)cc2C(=O)N1CCCCO,-7%,1.6%,?,14%,5%,4%,-1%&-1%,?
O=C(c1ccc(N2CCOCC2)c([N+](=O)[O-])c1)N1CCN(S(=O)(=O)c2cccs2)CC1,-11%,.,-22%,1%,-2%,.,.,.
Cc1nnc(-c2ccccc2)[nH]c1=O,.,.,-16%,-7%,-2%,-8%[46.1 µM],1%[46.1 µM],.
CCOc1cccc(C(=O)Nc2ccncc2)c1,.,.,-6%,9%,-1%,-2%[46.1 µM],?,.
O=C(C(=O)N1CCN(c2ccc([N+](=O)[O-])cc2)CC1)c1cn(CC(=O)N2CCOCC2)c2ccccc12,-12%,.,-9%,?,3%,-1%,-21%,.
CC(C)(C)c1ccc(-c2nc(C#N)c(NCc3cccnc3)o2)cc1,-58%,-11%,2%,-25%,-24%,13%,21%,?

# No enrichment for hits. About 4.5% of those tested had a hit in this group.
